miR-21 FLuc = qHTS Assay for Modulators of miRNAs and/orActivators of miR-21; HeLa miR-21 FLuc reporter, luciferase, 48 h; 340,000 tested, under 10 active; Potency, µM (series often up to 38.3 µM), for inactives: at the top dose reporter change, positive = more light; AID 2288, 2010; active = well fitted rising curve with a large enough effect; inconclusive = small, poorly fitted or top-dose-only effect; inactive = no such curve, though single readings can be large or run the other way;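 also: % of control where 0% means no effect; miR-21 action dims this reporter so a rising signal means less miR-21 action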
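Luminescence from a firefly luciferase reporter carrying a miR-21 binding site downstream, stably expressed under a CMV promoter in HeLa cells that make miR-21 endogenously, reports miRNA modulation after 48 h compound exposure up to approximately 40uM final.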
GLA inh pH 4.5 = qHTS Assay for Inhibitors of Human alpha-Galactosidase at pH 4.5; purified enzyme, 4-MU-alpha-Gal fluorescence, pH 4.5; AID 1467, 2008; activity change, negative = inhibition, % at 105 µM; Alpha-galactosidase A (Homo sapiens), P06280; 230,000 tested, under 10 active; inconclusive = small, poorly fitted or top-dose-only inhibition, or a rising curve; inactive = flat fitted curve, though single readings scatter; no compound was filed as active;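 also: 0% = full activity with enzyme and -100% = basal without enzyme; dose as in the result columns while the protocol names 77 µM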
Rango-impB inh = qHTS Assay for Inhibitors of Rango (Ran-regulated importin-beta cargo) - Importin beta complex formation. Importin subunit beta-1 (Homo sapiens), Q14974. Rango CFP/YFP FRET sensor + importin beta, 45 min. Potency, µM (highest dose often 92.2 µM), for the others: at the top dose inhibition of complex formation. 0.031% of 340,000 active; active = rising FRET ratio curve, often small or poorly fitted; inconclusive = mostly compound fluorescence or quenching in the first reads; inactive = flat curves in all reads;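 also: potency is read from the fitted curve at half-maximal effect; 0% = DMSO wells and 100% = buffer wells lacking importin beta; nearly all actives have a fitted effect of over 15% in size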
Target sequence (Q14974 whole entry, looked up): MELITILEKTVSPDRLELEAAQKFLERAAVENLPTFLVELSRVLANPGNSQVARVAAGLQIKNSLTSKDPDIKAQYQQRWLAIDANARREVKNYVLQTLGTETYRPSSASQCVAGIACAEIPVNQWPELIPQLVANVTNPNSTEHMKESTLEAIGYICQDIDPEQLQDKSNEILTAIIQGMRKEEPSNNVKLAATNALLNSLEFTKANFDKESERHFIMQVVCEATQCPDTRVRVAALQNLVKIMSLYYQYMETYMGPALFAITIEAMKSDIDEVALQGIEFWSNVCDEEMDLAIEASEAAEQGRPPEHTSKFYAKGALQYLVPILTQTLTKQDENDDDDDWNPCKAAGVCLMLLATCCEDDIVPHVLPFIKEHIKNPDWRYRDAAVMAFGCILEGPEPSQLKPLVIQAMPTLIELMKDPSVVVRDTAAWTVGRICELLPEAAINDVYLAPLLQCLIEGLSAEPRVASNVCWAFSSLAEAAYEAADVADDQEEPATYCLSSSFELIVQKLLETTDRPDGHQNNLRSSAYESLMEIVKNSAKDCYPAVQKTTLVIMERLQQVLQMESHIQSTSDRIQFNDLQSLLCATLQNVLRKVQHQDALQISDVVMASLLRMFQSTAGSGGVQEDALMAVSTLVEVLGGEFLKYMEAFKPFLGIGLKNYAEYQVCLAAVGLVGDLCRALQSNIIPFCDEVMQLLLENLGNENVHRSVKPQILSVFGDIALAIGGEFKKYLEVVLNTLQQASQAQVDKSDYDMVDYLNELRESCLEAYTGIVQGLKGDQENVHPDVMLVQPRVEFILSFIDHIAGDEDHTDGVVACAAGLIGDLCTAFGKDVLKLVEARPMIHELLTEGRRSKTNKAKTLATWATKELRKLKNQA
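Inhibition scored from the CFP 486 nm/YFP 530 nm FRET ratio 45 min after adding 0.125 microM importin beta to 50 nM Rango biosensor preincubated 5 min with compound (room temperature, PBS with DTT, Tween-20, BSA). No-importin wells as positive control.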
Rango release inh = qHTS Assay for Inhibitors of RanGTP induced Rango (Ran-regulated importin-beta cargo) - Importin beta complex dissociation; AID 540253, 2011; Potency, µM (doses to about 46.1 µM), for the others: at the highest dose activity change, negative = inhibition; Biochemical FRET Rango-importin beta, RanGTP-induced dissociation; Snurportin-1 (Homo sapiens) + GTP-binding nuclear protein Ran (Homo sapiens) + Importin …; 0.071% of 340,000 active; active means falling FRET ratio curve, often poorly fitted, with flat reads before Ran was added; inconclusive means other falling curves, or compound fluorescence or quenching; inactive means flat or rising ratio curve;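 also: potency is read from the fitted curve at half-maximal effect; % of control where 0% means no effect; nearly all actives have a fitted effect of over 45% in size; -100% = wells without RanGTP and RCC1; the record marks most hits as doubtful in a second field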
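Rango/importin beta premix (0.1/0.25 uM final), PBS + 1 mM DTT + 0.02% Tween-20 + 0.1% BSA; cpd 5 min RT; FRET pre-read; + RanGTP-RCC1 (0.6 uM Ran, 2 mM GTP, 0.2 uM RCC1); 45 min RT; FRET post-read, ex 430, em 486/530 nm.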
Active calls of the source: *; ? = inconclusive; · = no result given; [ ] = dose if it differs, or a comment.

| SMILES | miR-21 FLuc | GLA inh pH 4.5 | Rango-impB inh | Rango release inh |
| --- | --- | --- | --- | --- |
| O=C1NCCCC1C(=O)N1CCCCC1 (stereo unspecified) | 0% | 3[21.1 µM] | -0.9% | 2% |
| O=[N+]([O-])c1cccc(-c2ccc(C(=S)N3CCOCC3)o2)c1 | -60% | 11 | -0.2% | -8% |
| COc1cc2cc(CCCOC(=O)c3ccc(Br)cc3)oc(=O)c2cc1OC | · | · | ? | 18% |
| COC(=O)c1ccccc1S(=O)(=O)NNC(=O)C12CC3CC(CC(C3)C1)C2 | · | · | -0.8% | -2% |
| O=C(O)c1cc(S(=O)(=O)Nc2ccc3oc(=O)sc3c2)ccc1O | -1% | -22 | 1.2% | 3% |
| COc1ccc(-c2nn(-c3ccccc3)cc2/C=C2/SC(=S)N(Cc3ccco3)C2=O)c(C)c1 | -3% | 1 | 1.6% | -2% |
| CCOC(=O)c1c(NC(=O)C[n+]2ccc(N(C)C)cc2)sc(C)c1C | ? | 5 | 0.2% | -17% |
| O=C(COC(=O)Cc1c[nH]c2ccccc12)Nc1c(Cl)cccc1C(F)(F)F | · | · | 2.8% | 1% |
| COc1cc(NC(=O)COC(=O)CCOc2ccc(C)cc2)cc(OC)c1 | 3% | · | 1.3% | -2% |
| CC(NS(=O)(=O)c1ccc(Br)s1)c1ccccc1 (stereo unspecified) | 5% | · | -1.0% | 0% |
| COc1cc(C(=O)Nc2ccc(NC(=O)c3cccc(Cl)c3)nc2)cc(OC)c1OC | 17% | · | 1.4% | -7% |
| CCOCCCNC(=O)C(c1ccc(C)cc1)N(Cc1cccs1)C(=O)c1ccccn1 (stereo unspecified) | 17% | -2 | -0.1% | 1% |
| Brc1cccc(OCCOCCn2ccnc2)c1 | -5% | 3 | -4.3% | -10% |
| CCOC(=O)N1CCC(N(C(=O)Nc2ccccc2)C(C)CC)CC1 (stereo unspecified) | -17% | -4 | 1.7% | 2% |
| CCCCCC(=O)Nc1cccc(C2=NOC3(C2)C[C@@H](C(N)=O)N(C(=O)Cc2ccc([N+](=O)[O-])cc2)C3)c1 (stereo partly specified) | 8% | -6 | 0.0% | 1% |
| CN(C)CCCCCN(C)Cc1cc2ccccc2o1 | -14% | 4 | -2.3% | -1% |
| CC(=O)Oc1ccc(-c2cc3ccc(OC(C)=O)cc3oc2=O)cc1 | · | · | ? | ? |
| COc1ccc(C(=O)NCc2nnc(SCC(=O)Nc3cccc(F)c3)o2)cc1 | -3% | 1 | 1.7% | 1% |
| CCOC(=O)C1=C(C)N(C[C@@H]2CC[C@@H](Cc3ccc4cc(OC)ccc4c3)O2)C(=O)NC1c1ccc(OC)cc1 (stereo partly specified) | · | · | -1.4% | 9% |
| COC(=O)c1ccccc1NC(=O)CSc1nnnn1C | -7% | 5 | 3.1% | 1% |
| CCOC(=O)c1ccc2cccc(C)n2c1=O | -29% | 2 | ? | 12µM* |
| Cc1ccc(SCC(=O)NCc2ccco2)cc1 | -18% | 4 | -1.3% | -7% |
| CCc1cccc(CC)c1NC(=O)C1CSC2(C)CCC(=O)N12 (stereo unspecified) | · | · | 1.8% | 1% |
| Cc1ccc(S(=O)(=O)N2CCN(c3nc4ccccc4nc3-n3nc(C)cc3C)CC2)cc1 | -6% | -2 | ? | ? |
| Cc1ccccc1C(=O)OC(C)CN1CCN(C)CC1 (stereo unspecified) | -6% | 10 | 4.3% | -6% |
| Cc1cc(C(=O)CS(=O)(=O)c2ccc(Cl)cc2)cc(C)c1O | -16% | · | 3.0% | -16% |
| O=C(NCc1nnc(SCC(=O)N2CCN(c3ccccc3)CC2)o1)c1ccco1 | 0% | 6 | 4.2% | -2% |
| CCN(CC)c1nc2c(c(=O)[nH]c(=O)n2C)n1CCOc1ccccc1 | -19% | · | -0.9% | 1% |
| Clc1ccc2oc3c(Cl)ncnc3c2c1 | 9% | 4 | 15% | -1% |
| N#C/C(=C\c1ccc(O)c(O)c1)S(=O)(=O)c1ccccc1 | -30% | -22 | ? | ? |

A few values from the entries so far.
Rango release inh, `CCOC(=O)N1CCC(N(C(=O)Nc2ccccc2)C(C)CC)CC1` (stereo unspecified) stands at 2%
GLA inh pH 4.5, `Brc1cccc(OCCOCCn2ccnc2)c1` stands at 3

Just GLA inh pH 4.5, Rango release inh and Rango-impB inh (5 entries from above):
molecule	GLA inh pH 4.5	Rango release inh	Rango-impB inh
CN(C)CCCCCN(C)Cc1cc2ccccc2o1	4	-1%	-2.3%
O=C(O)c1cc(S(=O)(=O)Nc2ccc3oc(=O)sc3c2)ccc1O	-22	3%	1.2%
Clc1ccc2oc3c(Cl)ncnc3c2c1	4	-1%	15%
O=C1NCCCC1C(=O)N1CCCCC1 (stereo unspecified)	3[21.1 µM]	2%	-0.9%
CCOC(=O)C1=C(C)N(C[C@@H]2CC[C@@H](Cc3ccc4cc(OC)ccc4c3)O2)C(=O)NC1c1ccc(OC)cc1 (stereo partly specified)	·	9%	-1.4%

Next entries follow.
| SMILES | miR-21 FLuc | GLA inh pH 4.5 | Rango-impB inh | Rango release inh |
| --- | --- | --- | --- | --- |
| COc1cc(CNCCSc2nnnn2C)cc(Br)c1OCc1ccc(F)cc1 | 0% | -5 | ? | -23% |
| N#CCCN(C(=O)COC(=O)C12CC3CC(CC(O)(C3)C1)C2)c1ccc(F)cc1 | · | · | -2.7% | -20% |
| O=C1CN(C(=O)c2ccc(Br)o2)C(c2ccccc2)c2cc(Cl)ccc2N1 (stereo unspecified) | 7% | -4 | 0.1% | -14% |
| FC(F)(F)c1ccc(-n2cnc3ccccc32)nc1 | -38% | · | -0.3% | 3% |
| C[C@]12CCC[C@H](O1)c1c(cc3c(c1O)C(=O)c1c(O)cc(O)cc1C3=O)O2 | · | · | 5.0% | 5% |
| Nc1nc(C2CC(=O)OC23CCCCC3)cs1 (stereo unspecified) | 3% | -12 | 1.3% | -3% |
| COCCCN(Cc1ccco1)C(=O)c1cc2c(s1)-c1ccc(Cl)cc1S(=O)(=O)C2 | -10% | · | -0.2% | 0% |
| COc1ccc(C(=O)N/C(=C\c2ccccc2)C(=O)Nc2ccccc2C(=O)O)cc1 | · | · | -2.3% | 18% |
| COC(=O)C1=C(C)NC(C)=C(C(=O)OCC2CCCO2)C1c1cccc(Cl)c1 (stereo unspecified) | 0% | · | 0.5% | -6% |
| CCn1cc(C(=O)NCc2ccco2)c2cc(OC)c(OC)cc2c1=O | -1% | 1 | 3.7% | -3% |
| COc1ccccc1-c1nc(N)n[nH]1 | 1% | -7 | 4.6% | -4% |
| Cc1cccc(/C=C2\CCC(C3CCCC3)C2=O)c1 (stereo unspecified) | -8% | -4 | -0.2% | 1% |
| CCCc1nc2oc3ccccc3c(=O)c2c(=O)n1-c1ccc(C)cc1 | -52% | 3 | -5.5% | -5% |
| O=C(c1ccc(N2CCCC2=O)cc1)N1CCN(c2ccccc2F)CC1 | -12% | · | -0.3% | 4% |
| COc1cc(CNc2ncn[nH]2)cc(Br)c1OC | 0% | 7 | -4.5% | -10% |
| CCOC(=O)C1CCN(C(=O)N2CCOCC2)CC1 | 0% | 5 | -0.1% | 1% |
| O=C(O)c1cc(N2C(=O)C3C4C=CC(C4)C3C2=O)ccc1NCc1cccnc1 (stereo unspecified) | 0% | -3 | -1.3% | -8% |
| COc1ccc2oc(=Nc3cc(F)ccc3F)c(C(N)=O)cc2c1 | -3% | 3 | 0.6% | 3% |
| Cc1nn(-c2ccccc2)c(C)c1C(=O)Nc1ccc(N2CCOCC2)cc1 | -8% | -4 | -1.9% | -22% |
| CNC(=S)N1CCN(c2c(F)cc3c(=O)c(C(=O)O)cn(C4CC4)c3c2OC)CC1C (stereo unspecified) | -13% | -1 | 3.5% | 6% |
| COc1ccc(CC2(CO)CCN(Cc3cccnc3)CC2)cc1 | -39% | 3 | ? | -25% |
| Cn1nc(C(F)(F)F)c(C#N)c1N1CCN(c2ccccn2)CC1 | 11% | 5 | -0.1% | 4% |
| CC(C)CCn1c(=O)c2ccccc2n2c(CCC(=O)NC3CCN(Cc4ccccc4)CC3)nnc12 | -2% | · | 2.2% | -7% |
| COc1cccc(/C=N/NC(=O)CSc2cccc3cccnc23)c1 | 0% | -12 | 0.7% | 10% |
| O=C(NNC(=O)c1cccs1)c1ccc(F)cc1 | -23% | · | 0.1% | 22% |
| CC(NC(=O)COC(=O)/C(=C/c1cccs1)c1cccs1)c1ccccc1 (stereo unspecified) | 1% | -15 | -1.5% | -8% |
| CCCCCCNc1c(C(=O)OCC)c(=O)[nH]c2ccccc12 | 25% | 2 | -3.2% | 41% |
| COc1ccccc1OCc1nc(C#N)c(NCCCn2ccnc2)o1 | -1% | 1 | 0.9% | 1% |
| CCCCNC(=O)CSc1nc(N)c(C(=O)Nc2ccc(OC)cc2)s1 | -46% | -2 | 8.3% | -4% |
| CCC(CC)c1nnc(NC(=O)CCc2ccccc2)s1 | -4% | · | -4.4% | -4% |

Remaining list, next part
| SMILES | miR-21 FLuc | GLA inh pH 4.5 | Rango-impB inh | Rango release inh |
| --- | --- | --- | --- | --- |
| Cc1cc(Cl)ccc1OCC(=O)Nc1cccnc1 | -59% | · | -0.4% | 6% |
| CCOc1ccc(Nc2nc(Nc3ccc(O)cc3)nc(C)c2[N+](=O)[O-])cc1 | 3% | 2 | 1.5% | 3% |
| O=C(Cc1c[nH]c2ccccc12)N[C@@H](Cc1c[nH]c2ccccc12)C(=O)O | 0% | · | -0.5% | -2% |
| Cc1ccc(C(=O)NC(Cc2cccc(C(F)(F)F)c2)C(=O)O)cc1 (stereo unspecified) | · | · | 2.9% | 14% |
| CC(=O)N1CCN(C(=O)c2cc(S(=O)(=O)N3CCCCC3)ccc2Cl)CC1 | · | · | -2.4% | 1% |
| CCOC(=O)c1[nH]c2cc(OC)c(OC)cc2c1NC(=O)CN1CCN(C)CC1 | -9% | -3 | · | · |
| O=C(c1cc2nc(-c3ccc(F)cc3)cc(C(F)(F)F)n2n1)N1CCCCC1c1cccnc1 (stereo unspecified) | 24% | 0 | -2.7% | -12% |
| CCOC(=O)C1CCN(C(=O)c2cc3cc4ccc(C)cc4nc3o2)CC1 | -32% | · | 3.9% | ? |
| Cc1c(C(=O)O)sc(S(=O)(=O)N2CCN(C(=O)Cc3ccc(Cl)cc3)CC2)c1C(=O)O | · | · | 0.4% | 0% |
| CC(=O)N1CCOc2ccc(S(=O)(=O)N3C(C)CCCC3C)cc21 (stereo unspecified) | -4% | · | 0.3% | 15% |
| CCCCOc1ccc(C(=O)N/C(=C/C=C/c2ccccc2)C(=O)NCCO)cc1 | -8% | -8 | ? | 19% |
| O=C(Nc1ccc(OCc2ccccc2)cc1)c1cccnc1 | -21% | -14 | 0.2% | 10% |
| Cc1ccc(C(=O)Oc2ccc([N+](=O)[O-])cc2)cc1S(=O)(=O)N1CCCCCC1 | -2% | 4 | -0.7% | 3% |
| c1ccc(-c2cc(N3CCCCC3)nc(-c3ccccc3)n2)cc1 | -3% | -10 | 2.6% | 2% |
| CC(C)N(C(=O)CSc1nnc(Cc2ccc3c(c2)OCO3)n1C)C(C)C | -2% | 8 | -2.4% | 1% |
| COc1ccc(-c2noc(CNC(=O)c3ccoc3C)n2)cc1OC | -4% | · | -0.4% | 16% |
| CCOc1cc(N2CCOCC2)c(OCC)cc1NC(=O)COc1ccccc1[N+](=O)[O-] | -1% | -4 | 2.7% | -9% |
| CS(=O)(=O)Nc1ccccc1C(=O)Nc1ccc2c(c1)OCCO2 | -21% | -11 | 2.0% | 5% |

Rango release inh: what is marked active above
| SMILES | miR-21 FLuc | GLA inh pH 4.5 | Rango-impB inh | Rango release inh |
| --- | --- | --- | --- | --- |
| CCOC(=O)c1ccc2cccc(C)n2c1=O | -29% | 2 | ? | 12µM* |

Some of the compounds tested (hit frequency here may not be typical).
